A1 apoptosis 2 = blocks A1, raising caspase activity; MEF A1-2A-BIM cells, caspase-Glo luminescence, 3 h; percent of clofoctol response, DMSO zero; caspase activation, % (concentration not given with the values); 24,000 tested, under 10 active; in the data active = caspase activation above about 5.9%;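 note: wells of about 30 µL received 50 nL stock; the first replicate is given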
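Test system – A1-2A-BIM-expressing MEF cells · Input – 2500 cells/well · Medium – RPMI-1640 growth medium with 10% FBS · Compound dosing – 50 nL pinned compound · Timing – 3 h compound exposure at 37 °C · Technique – Caspase-Glo luminescence (DEVD substrate) · Evaluation – Caspase-3/7 activity from luminescence increase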
An asterisk follows results filed as active.

The first two compounds (preview)
compound	A1 apoptosis 2
C[C@@H]1CN([C@H](C)CO)C(=O)c2cc(NC(=O)Cc3ccccc3)ccc2O[C@@H]1CN(C)S(=O)(=O)c1ccc(Cl)cc1	0.2
COc1ccc(NC(=O)N(C)C[C@H]2OCCCC[C@@H](C)Oc3ccc(NS(=O)(=O)c4ccc(C)cc4)cc3C(=O)N([C@H](C)CO)C[C@@H]2C)cc1	-1.1

The whole of this part (from the top)
compound	A1 apoptosis 2
C[C@@H]1CN([C@H](C)CO)C(=O)c2cc(NC(=O)Cc3ccccc3)ccc2O[C@@H]1CN(C)S(=O)(=O)c1ccc(Cl)cc1	0.2
COc1ccc(NC(=O)N(C)C[C@H]2OCCCC[C@@H](C)Oc3ccc(NS(=O)(=O)c4ccc(C)cc4)cc3C(=O)N([C@H](C)CO)C[C@@H]2C)cc1	-1.1
C[C@@H]1CCCCO[C@H](CN(C)S(=O)(=O)c2cn(C)cn2)[C@H](C)CN([C@H](C)CO)C(=O)c2cc(NS(=O)(=O)c3ccccc3)ccc2O1	-0.7
C[C@H](CO)N1C[C@H](C)[C@@H](CN(C)C(=O)Nc2ccccc2)Oc2ccc(NC(=O)CCCCCC(=O)Nc3ccccc3N)cc2CC1=O	1.5
C[C@H](CO)N1C[C@H](C)[C@@H](CN(C)Cc2ccc(-c3ccccc3)cc2)Oc2ccc(NC(=O)CCC(F)(F)F)cc2CC1=O	-0.6
O=C(CCCCC(=O)N/N=C/c1cccc(B(O)O)c1)NO	-0.4
C[C@H](CO)N1C[C@H](C)[C@H](CN(C)C(=O)Nc2cccc3ccccc23)Oc2ccc(NC(=O)Cc3cn(C)c4ccccc34)cc2C1=O	0.3
CNC[C@@H]1Oc2c(NC(=O)Nc3ccc4c(c3)OCO4)cccc2C(=O)N([C@@H](C)CO)C[C@H]1C	0.5
COc1ccc(C#Cc2ccc3c(c2)[C@]2(C(=O)N3)[C@H](c3ccccc3OCCO)N3[C@H](c4ccccc4)[C@H](c4ccccc4)OC(=O)[C@H]3[C@@H]2C(=O)N2CCCCCCC2)cc1	0.2
C[C@@H]1CN([C@H](C)CO)C(=O)Cc2cc(NS(=O)(=O)c3ccccc3)ccc2O[C@H]1CN(C)C(=O)NC1CCCCC1	0.3
Cc1noc(C)c1NC(=O)N(C)C[C@@H]1Oc2ccc(NC(=O)CCC(F)(F)F)cc2C(=O)N([C@H](C)CO)C[C@@H]1C	0.0
C[C@H](CO)N1C[C@H](C)[C@H](CN(C)S(=O)(=O)c2cccs2)Oc2ccc(NC(=O)Nc3ccc4c(c3)OCO4)cc2C1=O	-0.2
C[C@@H]1CN([C@@H](C)CO)C(=O)c2cc(N(C)C)ccc2O[C@@H](C)CCCCO[C@@H]1CN(C)Cc1ccc(C(=O)O)cc1	0.0
C[C@@H]1CN([C@@H](C)CO)C(=O)Cc2cc(NC(=O)Cn3cnnn3)ccc2O[C@H]1CN(C)C(=O)Nc1cccc2ccccc12	-0.8
C[C@@H]1CN([C@@H](C)CO)C(=O)Cc2cc(NC(=O)Nc3ccc4c(c3)OCO4)ccc2O[C@@H]1CN(C)C(=O)Nc1ccc(F)cc1	1.1
C[C@H](CO)N1C[C@H](C)[C@@H](CN(C)C(=O)Nc2ccc(C(F)(F)F)cc2)Oc2ccc(NC(=O)CCCCCC(=O)Nc3ccccc3N)cc2C1=O	1.3
COc1ccc(/C=N/NC(=O)c2cccc(C(=O)NO)c2)c(OC)c1	-1.0
CNC[C@H]1Oc2c(NC(=O)Nc3ccc(OC)cc3)cccc2C(=O)N([C@@H](C)CO)C[C@@H]1C	0.5
COc1ccc(NC(=O)Nc2ccc3c(c2)C(=O)N([C@H](C)CO)C[C@@H](C)[C@@H](CN(C)S(=O)(=O)c2cccs2)OCCCC[C@@H](C)O3)cc1	1.3
O=C(N/N=C/c1ccc([N+](=O)[O-])c(O)c1)c1ccccn1	-11.8
COc1ccc(NC(=O)Nc2ccc3c(c2)C(=O)N([C@H](C)CO)C[C@H](C)[C@@H](CN(C)S(=O)(=O)c2cccs2)OCCCC[C@H](C)O3)cc1	1.3
C[C@@H]1CN([C@H](C)CO)C(=O)c2cc(NS(=O)(=O)c3cn(C)cn3)ccc2O[C@H]1CN(C)Cc1ccncc1	-0.5
Cc1noc(C)c1S(=O)(=O)N(C)C[C@H]1Oc2ccc(NC(=O)Cc3cn(C)c4ccccc34)cc2CC(=O)N([C@H](C)CO)C[C@H]1C	0.8
C[C@@H]1CCCCO[C@H](CN(C)C(=O)NC2CCCCC2)[C@@H](C)CN([C@H](C)CO)C(=O)c2cc(NS(=O)(=O)c3cn(C)cn3)ccc2O1	0.9
CNC[C@H]1OCCCC[C@@H](C)Oc2ccc(NC(=O)c3ccncc3)cc2C(=O)N([C@@H](C)CO)C[C@@H]1C	-0.4
C[C@H]1CN([C@@H](C)CO)C(=O)c2cc(NC(=O)Nc3ccccc3)ccc2O[C@@H]1CN(C)C	-0.4
C[C@@H]1CN([C@@H](C)CO)C(=O)c2cccc(NS(C)(=O)=O)c2O[C@@H]1CN(C)Cc1ccc(C(=O)O)cc1	1.0
C[C@H]1CN([C@@H](C)CO)C(=O)c2cc(NS(=O)(=O)c3cn(C)cn3)ccc2O[C@@H]1CN(C)Cc1ccc2c(c1)OCO2	-1.4
COc1ccc(S(=O)(=O)N[C@@H]2CCCN(Cc3cccc(OCCO)c3)C2)cc1	0.0
C[C@@H]1CN([C@H](C)CO)C(=O)c2cc(NS(=O)(=O)c3ccc(F)cc3)ccc2O[C@@H](C)CCCCO[C@@H]1CN(C)C(=O)C1CCCCC1	-1.0
Cc1noc(C)c1NC(=O)N(C)C[C@H]1Oc2c(NS(=O)(=O)c3c(C)noc3C)cccc2C(=O)N([C@H](C)CO)C[C@H]1C	-0.3
O=C(CCCCCC(=O)N/N=C/c1ccc2ccccc2n1)NO	-1.7
C[C@@H]1CN([C@H](C)CO)C(=O)c2cc(NC(=O)Cc3cn(C)c4ccccc34)ccc2O[C@H]1CN(C)S(=O)(=O)c1cccs1	0.0
C[C@@H]1CN([C@@H](C)CO)C(=O)c2cc(NC(=O)Nc3ccc(F)cc3)ccc2O[C@@H]1CN(C)S(=O)(=O)c1cn(C)cn1	0.3
C[C@@H]1CCCCO[C@H](CN(C)Cc2ccccc2)[C@H](C)CN([C@@H](C)CO)C(=O)c2cc(NC(=O)C3CCCCC3)ccc2O1	-1.2
C[C@H](CO)N1C[C@H](C)[C@H](CN(C)S(C)(=O)=O)Oc2ccc(NC(=O)CCCN(C)C)cc2CC1=O	-0.5
C[C@H](CO)N1C[C@H](C)[C@@H](CN(C)C(=O)Nc2ccc3c(c2)OCO3)OCCCC[C@H](C)Oc2ccc(NC(=O)Nc3ccc(F)cc3)cc2C1=O	1.1
C/C=C\C=C/C1OC(O)(C(CC)C(=O)NC/C=C\C=C(\C)C(OC)C(C)C2OC(\C=C/C=C\C=C(\C)C(=O)c3c(O)cc[nH]c3=O)C(O)C2O)C(O)C(O)C1(C)C (stereo not drawn)	0.3
Cc1ccc(S(=O)(=O)Nc2ccc3c(c2)C(=O)N([C@@H](C)CO)C[C@@H](C)[C@H](CN(C)CC2CC2)OCCCC[C@H](C)O3)cc1	0.6
C[C@H]1CCCCO[C@H](CN(C)C(=O)NC2CCCCC2)[C@@H](C)CN([C@@H](C)CO)C(=O)c2cc(NC(=O)c3ccncc3)ccc2O1	-1.2
COc1ccc(/C=N/NC(=O)c2ccccn2)cc1OC	-2.2
C[C@H]1CN([C@@H](C)CO)C(=O)c2cccc(NC(=O)c3ccc(-c4nccs4)cc3)c2O[C@H]1CN(C)C(=O)Nc1ccccc1	0.1
C[C@H]1CCCCO[C@@H](CN(C)Cc2ccc(C(=O)O)cc2)[C@@H](C)CN([C@@H](C)CO)C(=O)c2cc(NC(=O)NC3CCCCC3)ccc2O1	0.8
C[C@@H]1CN([C@@H](C)CO)C(=O)CCCn2cc(nn2)CO[C@H]1CN(C)S(=O)(=O)c1ccccc1F	-0.1
COc1ccc(CN(C)C[C@@H]2OCCCC[C@@H](C)Oc3ccc(NC(=O)Nc4ccc5c(c4)OCO5)cc3C(=O)N([C@@H](C)CO)C[C@@H]2C)cc1	-0.9
C[C@@H]1CN([C@H](C)CO)C(=O)c2cc(NS(=O)(=O)c3cccs3)ccc2O[C@@H](C)CCCCO[C@@H]1CN(C)Cc1ccccc1	0.3
C[C@@H]1CN([C@H](C)CO)C(=O)c2cccc(NS(=O)(=O)c3cn(C)cn3)c2O[C@@H]1CN(C)S(=O)(=O)c1ccc(F)cc1	-0.5
Cc1noc(C)c1NC(=O)Nc1ccc2c(c1)C(=O)N([C@@H](C)CO)C[C@H](C)[C@H](CN(C)S(=O)(=O)c1cn(C)cn1)O2	2.0
C[C@H](CO)N1C[C@H](C)[C@@H](CN(C)C(=O)CCC(F)(F)F)OCCCC[C@H](C)Oc2ccc(NC(=O)CCC(F)(F)F)cc2C1=O	0.7
Cc1ccc(S(=O)(=O)N(C)C[C@H]2Oc3c(NC(=O)C4CC4)cccc3C(=O)N([C@H](C)CO)C[C@@H]2C)cc1	-1.1
C[C@@H]1CN([C@@H](C)CO)C(=O)Cc2cc(NC(=O)c3ccncc3)ccc2O[C@@H]1CN(C)Cc1ccc(C(=O)Nc2ccccc2N)cc1	1.5
C[C@@H]1CN([C@H](C)CO)C(=O)CCCn2cc(nn2)CO[C@@H]1CN(C)S(=O)(=O)c1ccccc1C#N	1.9
Cc1ccc(S(=O)(=O)N(C)C[C@@H]2Oc3ccc(NC(=O)Cc4ccccc4)cc3CC(=O)N([C@@H](C)CO)C[C@@H]2C)cc1	-0.4
CNC[C@H]1Oc2ccc(NS(=O)(=O)c3ccc(OC)cc3)cc2CC(=O)N([C@H](C)CO)C[C@H]1C	-0.5
COc1ccc(S(=O)(=O)N(C)C[C@@H]2Oc3ccc(NS(=O)(=O)c4ccc(Cl)cc4)cc3C(=O)N([C@@H](C)CO)C[C@H]2C)cc1	-0.3
C[C@H](CO)N1C[C@H](C)[C@H](CN(C)S(=O)(=O)c2cccs2)Oc2ncc(Br)cc2C1=O	-0.3
CC(C)NC(=O)Nc1ccc2c(c1)C(=O)N([C@@H](C)CO)C[C@@H](C)[C@@H](CN(C)C(=O)NC1CCCCC1)O2	-0.7
C[C@H]1CN([C@@H](C)CO)C(=O)Cc2cc(NC(=O)NC3CCCCC3)ccc2O[C@@H]1CN(C)S(=O)(=O)c1cccs1	0.9
C[C@H]1CN([C@@H](C)CO)C(=O)c2cc(NC(=O)Cc3ccccc3)ccc2O[C@H]1CN(C)Cc1ccccc1	0.3
CNC[C@H]1OCCCC[C@H](C)Oc2ccc(NC(=O)Nc3ccccc3)cc2C(=O)N([C@H](C)CO)C[C@H]1C	-0.8

An excerpt from above in order of SMILES length, descending:
compound	A1 apoptosis 2
C[C@H](CO)N1C[C@H](C)[C@@H](CN(C)C(=O)CCC(F)(F)F)OCCCC[C@H](C)Oc2ccc(NC(=O)CCC(F)(F)F)cc2C1=O	0.7
CC(C)NC(=O)Nc1ccc2c(c1)C(=O)N([C@@H](C)CO)C[C@@H](C)[C@@H](CN(C)C(=O)NC1CCCCC1)O2	-0.7
CNC[C@H]1OCCCC[C@H](C)Oc2ccc(NC(=O)Nc3ccccc3)cc2C(=O)N([C@H](C)CO)C[C@H]1C	-0.8
C[C@H](CO)N1C[C@H](C)[C@H](CN(C)S(=O)(=O)c2cccs2)Oc2ncc(Br)cc2C1=O	-0.3

Going on with the list:
compound	A1 apoptosis 2
C[C@H](CO)N1C[C@H](C)[C@H](CN(C)S(C)(=O)=O)Oc2ccc(NC(=O)Cc3cn(C)c4ccccc34)cc2C1=O	-0.7
C[C@@H]1CN([C@H](C)CO)C(=O)c2cccc(NC(=O)Nc3ccc(C(F)(F)F)cc3)c2O[C@@H]1CN(C)S(C)(=O)=O	-0.9
Cc1ccc(S(=O)(=O)Nc2ccc3c(c2)C(=O)N([C@@H](C)CO)C[C@@H](C)[C@H](CN(C)C(=O)CCCN(C)C)OCCCC[C@H](C)O3)cc1	1.4
COc1ccc(S(=O)(=O)N(C)C[C@H]2OCCCC[C@@H](C)Oc3ccc(NC(=O)Nc4ccc(C(F)(F)F)cc4)cc3C(=O)N([C@H](C)CO)C[C@@H]2C)cc1	0.2
C[C@@H]1CCCCO[C@@H](CN(C)S(=O)(=O)c2ccccc2)[C@@H](C)CN([C@@H](C)CO)C(=O)c2cc(NS(=O)(=O)c3ccccc3)ccc2O1	0.3
C[C@H](CO)N1C[C@H](C)[C@@H](CN(C)Cc2ccc(C(F)(F)F)cc2)Oc2ccc(NC(=O)CCN3CCOCC3)cc2CC1=O	0.3
C[C@@H]1CCCCO[C@H](CN(C)S(=O)(=O)c2ccccc2)[C@@H](C)CN([C@@H](C)CO)C(=O)c2cc(NC(=O)CCCN(C)C)ccc2O1	0.6
C[C@H](CO)N1C[C@H](C)[C@H](CN(C)S(=O)(=O)c2ccccc2)OCCCC[C@H](C)Oc2ccc(NC(=O)Nc3cccc4ccccc34)cc2C1=O	-0.2
C[C@H](CO)N1C[C@H](C)[C@@H](CN(C)Cc2ccc(C(F)(F)F)cc2)OCCCC[C@H](C)Oc2ccc(NS(=O)(=O)c3ccc(F)cc3)cc2C1=O	1.8
C[C@@H]1CN([C@@H](C)CO)C(=O)Cc2cc(NS(=O)(=O)c3cn(C)cn3)ccc2O[C@H]1CN(C)S(=O)(=O)c1cn(C)cn1	1.4

Compound activity (PubChem)

The list is partial; rates above refer to the full screens.
